Screening data as filed in PubChem.
MT1-MMP act inh = blockers of MT1-MMP proenzyme processing, primary screen, HT1080 RFP-PRO-GFP cells, GFP/RFP fluorescence. 360,000 compounds, 0.061% hits. Matrix metalloproteinase-14 (Homo sapiens), P50281. GFP/RFP ratio fluorescence, overnight; percent of plate control window, DMSO zero. AID 651647, 2012. GFP/RFP ratio change, % at 20 µM;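 active = GFP/RFP ratio change of at least 30% with cell ATP level not reduced by more than half and red fluorescence within 50% of control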; note: strong numbers were not always called active
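Material – HT1080 RFP-PRO-GFP cells · Control set – DMSO wells and RFP-L50D-GFP cells · Incubation – overnight cell settling, then overnight compound exposure, 37 °C, 5% CO2 · Compound dosing – single-point 20 µM compound, 1% DMSO · Read-out – GFP/RFP fluorescence ratio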
HIV Env fusion = inhibitors of HIV-1 Env-driven cell-cell fusion, primary screen, HeLa-JRFL effector, CEM21 target cells, luciferase. 360,000 compounds, 1.1% hits. inhibition, % at 12.3 µM. AID 651610, 2012;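 active = mean replicate inhibition score of at least 50 and every replicate individually at or above 50; inconclusive = only one of the two criteria met; inactive = mean below 50 and not all replicates reaching 50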;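 note: 0% = plate neutral controls and 100% = maraviroc near 300 nM; one replicate is shown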
PABP FP inh = PABP poly(A) RNA binding inhibitors, primary screen, biochemical, fluorescence polarization, uHTS. AID 2014, 2009. inhibition, % at 35 µM. 290,000 compounds, 1% hits. Polyadenylate-binding protein 1 (Homo sapiens), P11940;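 active = 50% or more with normal probe brightness, or confirmed in later tests; inconclusive = above 50% with abnormal brightness, or retests that disagree; inactive = below 50% or failed in later tests; about a fifth of its hits are not listed in these tables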;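 note: calls also rest on retests at 20 µM and on dose response follow-up; controls were probe without protein and protein plus probe with vehicle; some compounds called inactive have numbers as strong as hits; many hits fall short of the cut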
Target sequence (P11940 whole entry, looked up): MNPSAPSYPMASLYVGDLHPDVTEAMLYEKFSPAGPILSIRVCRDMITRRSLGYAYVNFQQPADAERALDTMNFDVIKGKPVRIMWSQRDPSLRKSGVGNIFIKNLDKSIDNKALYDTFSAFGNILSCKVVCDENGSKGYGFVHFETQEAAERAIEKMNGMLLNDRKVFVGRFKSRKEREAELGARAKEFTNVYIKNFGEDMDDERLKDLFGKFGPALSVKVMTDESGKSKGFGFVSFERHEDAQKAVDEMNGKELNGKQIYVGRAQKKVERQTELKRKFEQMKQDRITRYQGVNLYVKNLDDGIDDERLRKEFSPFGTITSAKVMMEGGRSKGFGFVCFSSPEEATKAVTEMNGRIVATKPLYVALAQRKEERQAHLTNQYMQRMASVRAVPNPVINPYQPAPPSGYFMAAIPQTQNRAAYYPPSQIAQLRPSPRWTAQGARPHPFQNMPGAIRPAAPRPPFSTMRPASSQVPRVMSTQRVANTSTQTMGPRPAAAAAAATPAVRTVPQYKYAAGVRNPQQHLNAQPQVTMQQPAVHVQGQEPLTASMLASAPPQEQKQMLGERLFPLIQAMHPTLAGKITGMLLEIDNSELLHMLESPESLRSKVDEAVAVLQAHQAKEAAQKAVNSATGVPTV
CSC inhib = cancer stem cell viability inhibitors, primary screen, luminescence. cancer stem cell-like cells viability. inhibition, % at 7.5 µM. 300,000 compounds, 1.1% hits;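 active = mean at 75% or more and at least half the replicates too; inconclusive = mean and replicates disagree; tested in HMLE shEcad cells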;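 note: 0% = median of negative and 100% = median of positive control wells; the first replicate is given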
Rce1 inh = yeast Rce1p protease inhibitors, primary screen, biochemical, fluorescence, cell-free homogeneous. CAAX prenyl protease 2 (Saccharomyces cerevisiae (strain ATCC 204508 / S288c)), Q03530. yeast membranes, quenched prenylated peptide cleavage fluorescence. calls only. 290,000 compounds, 0.27% hits. AID 2563, 2010;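 active = fall in fluorescence gain of 50% or more versus controls, with final raw signal at or below 3038400; inconclusive = same 50% fall but final raw signal above 3038400; inactive = fall in fluorescence gain under 50%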;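 note: plate controls were neutral control wells for no effect and wells lacking membranes for full effect; tested at 10 µM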
Target sequence (Q03530 whole entry, looked up): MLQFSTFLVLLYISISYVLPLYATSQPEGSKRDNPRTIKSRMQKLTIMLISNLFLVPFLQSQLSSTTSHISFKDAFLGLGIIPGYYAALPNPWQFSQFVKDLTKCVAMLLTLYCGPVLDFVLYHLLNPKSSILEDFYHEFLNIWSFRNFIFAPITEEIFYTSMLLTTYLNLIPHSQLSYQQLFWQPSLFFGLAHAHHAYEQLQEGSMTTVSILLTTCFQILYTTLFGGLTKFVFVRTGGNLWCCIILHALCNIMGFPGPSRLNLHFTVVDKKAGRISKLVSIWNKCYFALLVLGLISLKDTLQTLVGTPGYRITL
eIF4H inh = human eIF4H binding inhibitors, primary screen, translation initiation inhibitor project, biochemical, uHTS, fluorescence polarization; eIF4H fluorescence polarization binding assay; inhibition, % at 35 µM; 290,000 compounds, 0.94% hits;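 active = 50% or more with normal probe brightness, or confirmed in later tests; inconclusive = above 50% with abnormal brightness, or retests that disagree; inactive = below 50% or failed in later tests; about a fifth of its hits are not listed in these tables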;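 note: calls also rest on retests at 20 µM and on dose response follow-up; 0% = protein and probe with vehicle and 100% = probe without protein; strong numbers were not always called active; many hits fall short of the cut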
UUG fidelity = modulators of yeast start codon fidelity, primary screen, whole organism, S. cerevisiae, single point, plate reader. 350,000 compounds, 0.13% hits. AID 602363, 2012. S. cerevisiae UUG-firefly luciferase reporter, luminescence/redox ratio. activity score, % at 18.7 µM;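 active = replicate mean at a twofold rise or more, about +100% in these data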;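 note: firefly luciferase made from a UUG start codon reports start codon fidelity; reporter light over untreated wells divided by growth signal over untreated wells; some hits fall short of that in this replicate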
MT1-MMP act inh RFP = recorded beside MT1-MMP act inh, whose call it bears; RFP signal change, %; measured here: RFP expression control read;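 0 = vehicle wells; hits needed this value within 50% of zero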
* hit, by the source's call.

For Cc1cc(C)c2[nH]c(=O)c(C(c3nnnn3CC3CCCO3)N3CCCC(C)C3)cc2c1 (centres undefined) the results were MT1-MMP act inh 0.3, HIV Env fusion inconclusive, PABP FP inh 9.9, CSC inhib -12.1, Rce1 inh inactive, eIF4H inh -4.3, UUG fidelity 2.9 and MT1-MMP act inh RFP 2.1.
For Cc1ccc(C(=O)N/N=C/c2cc(Br)ccc2O)cn1 the results were MT1-MMP act inh 4.7, HIV Env fusion 28.6, PABP FP inh -1.8, CSC inhib 27.9, eIF4H inh 3.6, UUG fidelity -27.7 and MT1-MMP act inh RFP -4.7.
Screening COc1ccc(CCNC(=O)CNCC2CCCO2)cc1OC (centres undefined) returned MT1-MMP act inh 2.4, HIV Env fusion -84.4, PABP FP inh 15.0, CSC inhib -6.3, Rce1 inh inactive, eIF4H inh -7.6, UUG fidelity -17.3 and MT1-MMP act inh RFP -0.6.
`O=C(N/N=C/c1cccs1)c1cc(-c2cccc3ccccc23)n[nH]1` gave MT1-MMP act inh -0.1, HIV Env fusion -76.6, PABP FP inh -5.8, CSC inhib 49.5, Rce1 inh inactive, eIF4H inh -14.0 and MT1-MMP act inh RFP -7.4.
Cc1cn([C@H]2C[C@H](O)[C@@H](CCC(=O)NC(c3ccccc3)c3ccccc3)O2)c(=O)[nH]c1=O was read as MT1-MMP act inh 0.9, HIV Env fusion 18.4, UUG fidelity -5.1 and MT1-MMP act inh RFP 4.0.
Screening CC(C)C(=O)N1CCC1(C)C(=O)Nc1ccc(-n2cccc2)cc1 (centres undefined) returned MT1-MMP act inh -4.8, HIV Env fusion -6.6, UUG fidelity -1.1 and MT1-MMP act inh RFP -7.1.
`COCC(=O)OCC(=O)Nc1cc(C)c(C)cc1[N+](=O)[O-]` gave MT1-MMP act inh -0.1, HIV Env fusion -0.3, PABP FP inh -8.1, CSC inhib -10.8, Rce1 inh inactive, eIF4H inh -2.9 and MT1-MMP act inh RFP 2.0.
`COc1ccccc1OCCn1cc(C=O)c2ccccc21` gave MT1-MMP act inh -2.1, HIV Env fusion 1.6, PABP FP inh 6.8, CSC inhib -9.7, Rce1 inh inactive, eIF4H inh -7.1, UUG fidelity -5.5 and MT1-MMP act inh RFP -12.1.
Screening COc1cc(Cl)ccc1OC1(C)CCN(Cc2cccc(OC)c2OC)C1 (centres undefined) returned MT1-MMP act inh 3.1, HIV Env fusion 22.3, UUG fidelity 1.6 and MT1-MMP act inh RFP -1.2.
Screening CC1C=CCC2C(=O)N(c3ccc(OC(=O)c4ccco4)cc3)C(=O)C12 (centres undefined) returned MT1-MMP act inh 1.8, HIV Env fusion -9.2, PABP FP inh -8.3, CSC inhib -2.0, Rce1 inh inactive, eIF4H inh -3.7, UUG fidelity -13.9 and MT1-MMP act inh RFP 3.8.
`O=c1oc2ccccc2c(NCc2ccccc2F)c1[N+](=O)[O-]` gave MT1-MMP act inh -0.4, HIV Env fusion 9.9, PABP FP inh 6.4, CSC inhib -4.9, Rce1 inh inactive, eIF4H inh -11.0 and MT1-MMP act inh RFP -7.0.
Cn1nc([N+](=O)[O-])c(C(C#N)c2ccccn2)c(Cl)c1=O (centres undefined) was read as MT1-MMP act inh -6.8, HIV Env fusion 43.4, PABP FP inh inconclusive, CSC inhib 88.4*, Rce1 inh inactive, eIF4H inh 24.3, UUG fidelity -11.3 and MT1-MMP act inh RFP -5.0.
`O=C(O)C1CCc2sc3[nH]c(=S)n(-c4ccccc4)c(=O)c3c21` (centres undefined) gave MT1-MMP act inh -0.3, HIV Env fusion 2.9, PABP FP inh 9.9, CSC inhib -10.5, Rce1 inh inactive, eIF4H inh 10.5, UUG fidelity -18.8 and MT1-MMP act inh RFP 2.6.
N#C/C(=N\Nc1ccc(S(=O)(=O)N2CCOCC2)cc1)C(N)=S was read as MT1-MMP act inh 4.6, HIV Env fusion 6.8, PABP FP inh 13.1, CSC inhib -2.2, Rce1 inh inactive, eIF4H inh 0.8, UUG fidelity -14.3 and MT1-MMP act inh RFP 2.3.
Screening Cc1csc(=Nc2ccccc2)n1CCCN1CCCC1=O returned MT1-MMP act inh -2.4, HIV Env fusion -7.4, PABP FP inh 3.6, CSC inhib -0.6, Rce1 inh inactive, eIF4H inh -12.1, UUG fidelity -8.6 and MT1-MMP act inh RFP -0.1.
For COc1ccc(-c2cc(C(F)(F)F)c3c(n2)sc2c(O)cc(=O)[nH]c23)c(OC)c1 the results were MT1-MMP act inh -100.2, HIV Env fusion -5.6, PABP FP inh 7.2, CSC inhib 52.4, Rce1 inh inactive, eIF4H inh 15.5 and MT1-MMP act inh RFP 3.9.
Cc1ccc(-c2nnn(CC(=O)N(CC(=O)NCC3CCCO3)c3ccccc3)n2)o1 (centres undefined) was read as MT1-MMP act inh -0.6, PABP FP inh -5.9, CSC inhib -3.8, Rce1 inh inactive, eIF4H inh 3.5, UUG fidelity -5.9 and MT1-MMP act inh RFP -4.0.
For Cc1cc(NC(=O)CSC2=NS(=O)(=O)c3cc(F)ccc3N2)no1 the results were MT1-MMP act inh 1.9, CSC inhib 1.5, Rce1 inh inactive, UUG fidelity -1.2 and MT1-MMP act inh RFP 2.1.
`CN(C(=O)COC(=O)c1cccc(S(=O)(=O)N2CCCCCC2)c1)C1CCS(=O)(=O)C1` (centres undefined) gave CSC inhib -2.8, Rce1 inh inactive and UUG fidelity -4.9.
For COc1ccc(-c2coc3cc(OC)cc(OC)c3c2=O)cc1 the results were MT1-MMP act inh -2.1, PABP FP inh 11.5, CSC inhib -13.7, Rce1 inh inactive, eIF4H inh -0.3, UUG fidelity -16.1 and MT1-MMP act inh RFP -3.5.
Screening O=C1[C@H]2[C@@H](/C=C/c3ccccc3)N3C(=O)CN(CC4CC4)C(=O)[C@@]3(Cc3ccccc3)[C@H]2C(=O)N1c1ccccc1 returned MT1-MMP act inh 7.4, HIV Env fusion -15.0, PABP FP inh 1.4, CSC inhib 4.0, Rce1 inh inactive, eIF4H inh 5.2, UUG fidelity -0.2 and MT1-MMP act inh RFP 3.1.
CN(C)S(=O)(=O)c1ccc(Cl)c(NC(=O)c2ccncc2)c1 was read as MT1-MMP act inh 0.8, HIV Env fusion 6.1, PABP FP inh -6.4, CSC inhib -1.6, Rce1 inh inactive, eIF4H inh -6.1, UUG fidelity 1.1 and MT1-MMP act inh RFP 6.4.
COCCNC(=O)c1ccc(Cl)c(Cl)c1 was read as MT1-MMP act inh -2.3, PABP FP inh -5.0, CSC inhib -4.3, Rce1 inh inactive, eIF4H inh -7.5, UUG fidelity -3.7 and MT1-MMP act inh RFP -1.4.
For CC(C)Oc1ccc(C(=O)N(Cc2ccco2)C2CCS(=O)(=O)C2)cc1 (centres undefined) the results were MT1-MMP act inh -1.8, PABP FP inh 4.1, CSC inhib -5.5, Rce1 inh inactive, eIF4H inh 4.6, UUG fidelity 4.0 and MT1-MMP act inh RFP -1.2.
For O=C(Cc1ccc(Cl)cc1)NCC(=O)N1CCCCC1 the results were MT1-MMP act inh -3.2, HIV Env fusion -43.2, PABP FP inh -3.7, CSC inhib -4.1, Rce1 inh inactive, eIF4H inh -6.0 and MT1-MMP act inh RFP 0.4.
For O=[N+]([O-])c1cccc(-c2ccc(/C=N/Nc3nc(N4CCCCC4)nc(N4CCCCC4)n3)o2)c1 the results were MT1-MMP act inh -6.7, HIV Env fusion 28.8, PABP FP inh 11.8, Rce1 inh inactive, eIF4H inh 5.0 and MT1-MMP act inh RFP -13.3.
Screening Cc1cc(C)c(NS(=O)(=O)c2ccc(NC(=O)CCC(=O)O)cc2)c(C)c1 returned MT1-MMP act inh -3.4, HIV Env fusion 6.7, PABP FP inh 5.3, CSC inhib -30.4, Rce1 inh inactive, eIF4H inh 0.2 and MT1-MMP act inh RFP 3.1.
`CC(C)C(CO)NC(=O)CC(=O)NC(CO)C(C)C` (centres undefined) gave MT1-MMP act inh -0.3, PABP FP inh 0.4, CSC inhib 8.0, Rce1 inh inactive, eIF4H inh -5.3, UUG fidelity -17.5 and MT1-MMP act inh RFP 0.1.
For O=S1(=O)CCOCCCN1Cc1cccc(F)c1 the results were MT1-MMP act inh 2.5, HIV Env fusion -7.8, PABP FP inh 16.3, CSC inhib -8.0, Rce1 inh inactive, eIF4H inh -2.8, UUG fidelity -11.5 and MT1-MMP act inh RFP 5.4.
Screening O=C(N/N=C/c1cc(Br)cs1)c1c[nH]c2ccccc12 returned MT1-MMP act inh 2.4, HIV Env fusion -7.5, PABP FP inh -1.6, CSC inhib 39.0, Rce1 inh inactive, eIF4H inh 2.1, UUG fidelity 7.6 and MT1-MMP act inh RFP -1.3.
Cc1cccc(S(=O)(=O)NNC(=O)c2sc(C)nc2C)c1 was read as MT1-MMP act inh 1.1, HIV Env fusion 8.3, PABP FP inh -2.3, CSC inhib 3.8, Rce1 inh inactive, eIF4H inh -5.0 and MT1-MMP act inh RFP 0.5.
For CCOC(=O)C(C)Sc1ccc2nnc(CCNS(=O)(=O)c3ccccc3)n2n1 (centres undefined) the results were MT1-MMP act inh 2.1, HIV Env fusion 0.5, PABP FP inh 4.5, CSC inhib -10.6, Rce1 inh inactive, eIF4H inh 3.3 and MT1-MMP act inh RFP 6.3.
Screening Cc1cccc(C(=O)NCC2CCN(C(=O)c3cccc(C)c3)CC2)c1 returned MT1-MMP act inh 4.2, HIV Env fusion 28.6, PABP FP inh -1.1, CSC inhib -2.5, Rce1 inh inactive, eIF4H inh -0.9, UUG fidelity -1.4 and MT1-MMP act inh RFP 3.2.
Screening CCN(CC)CCNS(=O)(=O)c1ccc2c3c(cccc13)C(=O)N2 returned MT1-MMP act inh 0.2, HIV Env fusion -6.5, PABP FP inh 15.6, CSC inhib -7.0, Rce1 inh inactive, eIF4H inh 2.3, UUG fidelity -20.1 and MT1-MMP act inh RFP 8.3.
`COc1ccccc1N1CCN(C(=O)c2cc(=O)c3cc(C)cc(C)c3o2)CC1` gave MT1-MMP act inh 12.4, HIV Env fusion -303.7, PABP FP inh 1.4, CSC inhib 50.0, Rce1 inh inactive, eIF4H inh -6.3 and MT1-MMP act inh RFP -1.7.
Cc1ccc(/C=N/N2CCN(C3c4ccccc4-c4ccccc43)CC2)s1 was read as MT1-MMP act inh -2.4, HIV Env fusion 9.3, PABP FP inh -32.7, CSC inhib 13.1, Rce1 inh inactive, eIF4H inh -17.4 and MT1-MMP act inh RFP -2.2.
`COc1cccc(N2CCN(Cc3cccnc3)CC2)c1` gave MT1-MMP act inh 16.7, HIV Env fusion -14.1, PABP FP inh 8.1, CSC inhib -4.9, Rce1 inh inactive, eIF4H inh -8.1, UUG fidelity -17.1 and MT1-MMP act inh RFP 5.4.
For CCSc1ccccc1C(=O)NCc1cccnc1 the results were MT1-MMP act inh -2.6, HIV Env fusion 6.9, PABP FP inh -3.4, CSC inhib 9.5, Rce1 inh inactive, eIF4H inh -9.2, UUG fidelity -10.2 and MT1-MMP act inh RFP 0.1.
CCc1nc2c(OCc3ccccc3C)cccn2c1N(C)C(=O)c1ccc(C)cc1 was read as MT1-MMP act inh -7.0, HIV Env fusion -30.0, UUG fidelity -16.9 and MT1-MMP act inh RFP -4.5.

An excerpt; the hit share may differ from the screen's.
